B2AR ag – beta2AR agonists driving receptor internalization, primary screen, cell-based, FAP fluorogen, flow cytometry | Beta-2 adrenergic receptor (Homo sapiens), P07550 | Am2.2-beta2AR cells; reference of the scale not given here | response, % (test concentration not listed) | 0.43% of 340,000 active | AID 504454, 2011;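 active means response above a set limit, near 3 SD of response in nonfluorescent compounds, cut at about 42% in these data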;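 further: stock transfer was 100 nL into about 11 µL; a reference agonist was the positive control; negative values mostly stem from fluorescent compounds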
Target sequence (P07550 whole entry, looked up): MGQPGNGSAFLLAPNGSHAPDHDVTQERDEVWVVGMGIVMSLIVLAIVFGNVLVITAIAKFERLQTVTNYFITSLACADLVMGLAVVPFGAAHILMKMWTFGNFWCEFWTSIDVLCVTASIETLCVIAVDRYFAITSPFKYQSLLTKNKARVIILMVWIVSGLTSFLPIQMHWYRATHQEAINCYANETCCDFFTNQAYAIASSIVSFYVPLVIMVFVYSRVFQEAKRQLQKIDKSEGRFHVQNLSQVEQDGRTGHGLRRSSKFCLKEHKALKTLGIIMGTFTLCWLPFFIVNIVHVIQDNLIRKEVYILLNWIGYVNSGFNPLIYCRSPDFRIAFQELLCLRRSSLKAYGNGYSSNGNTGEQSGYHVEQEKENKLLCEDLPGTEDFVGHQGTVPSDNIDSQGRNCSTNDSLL
ALR H2O2 inh – inhibitors of human ALR sulfhydryl oxidase, primary screen, biochemical, H2O2 detection, HRP-luminol luminescence, single point | purified ALR, DTT oxidation | inhibition, % (no concentration beside the values) | 3.8% of 290,000 active;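 active means mean and each replicate at 75% or more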;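 further: stock transfer was 7.5 nL into about 7.5 µL; 0% = neutral wells and 100% = wells with inactivated enzyme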
FGF22 binding – binders of human FGF22 protein, primary screen, FGF22 synaptogenesis inhibitor project, biophysical, thermal shift, single point. calls only at 9.99 µM. recombinant FGF22 thermal shift, SYPRO orange fluorescence; percent of sucrose octasulfate shift, DMSO zero. Fibroblast growth factor 22 (Homo sapiens), Q9HCT0. 1.5% of 340,000 active;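 active means melting point raised past a set limit in the mean and every replicate; three in four hits are not shown here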
Target sequence (Q9HCT0 whole entry, looked up): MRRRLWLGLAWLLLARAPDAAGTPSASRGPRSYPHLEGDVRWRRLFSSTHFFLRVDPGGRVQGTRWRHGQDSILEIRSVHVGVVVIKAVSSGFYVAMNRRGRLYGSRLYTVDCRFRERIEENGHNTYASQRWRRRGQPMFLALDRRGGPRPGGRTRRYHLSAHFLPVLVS
E coli growth – E. coli growth inhibition, primary screen, OD600 | 0.21% of 330,000 active | AID 1053175, 2014 | OD600 absorbance (concentration not given with the values) | Escherichia coli growth, 23 h; hits give low values;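 active means OD600 absorbance below the run mean of sample wells minus 3.6 SD, in any replicate, cut at about 0.56 in these data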;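 further: stock transfer was 300 nL into about 60 µL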
LANA-H2B inh – blockers of LANA interaction with H2A/H2B – biochemical, FP readout, HTS, primary screen; 0.6% of 320,000 active; inhibition, % (no concentration beside the values); cell-free LANA-H2A/H2B peptide, fluorescence polarization; AID 2629, 2010; Protein LANA1 (Human herpesvirus 8 type P (isolate GK18)), Q9QR71; in the data active means inhibition mostly above about 10%, no sharp cut-off; inactive means mostly below about 6.7%;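 further: stock transfer was 7.5 nL into about 10 µL; 0% = median of vehicle wells and 100% = median of positive control wells; one replicate is shown; the record names a cut of 25% in any replicate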
UCH37 inh – inhibitors of human UCH37 deubiquitinase, primary screen, biochemical, Ub-AMC cleavage, fluorescence; Ubiquitin carboxyl-terminal hydrolase isozyme L5 (Homo sapiens), Q9Y5K5; purified proteasome/UCH37; inhibition, % (concentration not given with the values); 0.33% of 330,000 active; AID 588478, 2011;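 active means mean of two replicates above 20%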;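 further: 0% = compound-free wells with enzyme and 100% = wells lacking proteasome; stock transfer was 100 nL into about 20 µL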
Target sequence (Q9Y5K5 whole entry, looked up): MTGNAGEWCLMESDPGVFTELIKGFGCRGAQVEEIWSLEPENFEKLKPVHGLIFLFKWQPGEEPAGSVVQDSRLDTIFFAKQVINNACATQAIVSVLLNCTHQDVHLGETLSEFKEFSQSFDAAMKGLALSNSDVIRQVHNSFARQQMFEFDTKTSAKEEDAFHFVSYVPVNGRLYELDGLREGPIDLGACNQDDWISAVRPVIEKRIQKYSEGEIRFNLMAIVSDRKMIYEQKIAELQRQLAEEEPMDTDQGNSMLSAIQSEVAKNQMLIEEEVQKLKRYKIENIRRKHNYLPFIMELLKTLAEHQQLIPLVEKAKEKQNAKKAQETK
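Test system – human UCH37 enzyme supplied as purified proteasome complex · Incubation – 30 min preincubation with enzyme, 25 min cleavage at room temperature · Detection – AMC fluorescence from Ub-AMC cleavage, excitation 355 nm, emission 460 nm · Benchmarks – no-proteasome wells (full inhibition) and compound-free wells (no inhibition)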
HNF4A DNA FP – change in binding of human HNF4A to DNA, primary screen, biochemical, fluorescence polarization, FITC-DNA; Hepatocyte nuclear factor 4-alpha (Homo sapiens), P41235; 1 h; activity change, % at 10 µM; 0.3% of 360,000 active; AID 1224865, 2016; in the data active means activity change above about 30%, passing the limit was not always enough;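 further: controls were the assay level and a saturating level of protein; the project sought stronger binding though the title names inhibitors; some compounds called inactive have numbers as strong as hits; positive values seem to mean higher polarization but the record does not say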
* hit, by the source's call; i = inactive; / = no result given. A portion of the library, so the mix of outcomes need not match the whole.

SMILES | B2AR ag | ALR H2O2 inh | FGF22 binding | E coli growth | LANA-H2B inh | UCH37 inh | HNF4A DNA FP
O=C(c1ccccc1)c1cnc[nH]1 | -7.3 | 1.9 | i | 0.663 | -1.6 | 3.3 | 5.6
Cc1cccc(C)c1NC(=O)CCS(=O)(=O)c1cccc2nonc12 | 7.4 | / | i | 0.685 | 4.5 | 0.6 | -2.3
Cc1cc(-c2ccc(C)c(S(=O)(=O)Nc3cc(C)on3)c2)on1 | 17.4 | -7.7 | i | 0.71 | 3.0 | 2.7 | 4.9
Cc1cccc(NC(=O)Cn2nnc3sc4c(c3c2=O)CC(C)(C)OC4)c1 | 0.3 | -12.2 | i | 0.666 | 1.4 | 1.6 | -1.0
CC(=O)Nc1ccc(/C=N/Nc2nncc3ccccc23)cc1 | -22.8 | / | i | / | 6.8 | / | 2.5
CC12CC3(C)CC(C)(C1)CC(C(=O)NC1=NCCS1)(C2)C3 | -100.2 | / | / | 0.686 | -2.0 | 7.5 | -0.4
N#Cc1ccccc1NC(=O)COC(=O)CCc1ccc(S(=O)(=O)N2CCCCC2)cc1 | 7.8 | / | / | 0.693 | 3.0 | 0.4 | -2.6
Cc1ccc(C(=O)N/N=C\c2ccc(Br)o2)o1 | -4.0 | 3.6 | / | / | -0.6 | / | 0.8
O=C(NCCCCc1ccccc1)c1ccccc1F | -2.9 | -4.3 | i | 0.693 | 4.1 | 1.7 | 2.5
CCCCC(=O)Nc1c(-c2ccc(OC)c(OC)c2)c(=O)c2ccccc2n1C | -10.4 | / | i | 0.678 | -5.1 | 1.9 | 1.7
CCOC(=O)N1CCN(c2c(NCCCN(CC)Cc3ccccc3)c(=O)c2=O)CC1 | -17.4 | -26.8 | / | 0.661 | 2.8 | 2.4 | 2.7
Cc1ccc(C)c(NC(=O)C2C3CCCC2C3c2ccccc2)c1 (stereo unspecified) | 2.5 | -1.4 | / | 0.73 | 1.8 | 1.1 | 0.2
CN(C)S(=O)(=O)c1ccc(N/C=C(\[N+](=O)[O-])S(=O)(=O)c2ccccc2)cc1 | 0.9 | -10.7 | i | 0.654 | -8.4 | 1.5 | 5.7
O=C(NCCN1CCN(C(=O)c2c(F)cccc2F)CC1)C(=O)Nc1ccc(Cl)cc1 | -10.1 | -6.9 | i | 0.683 | 1.3 | 2.0 | 1.1
CCOC(=O)c1ccsc1NC(=O)CCS(=O)(=O)c1ccccc1 | -1.9 | -6.4 | i | 0.717 | 1.2 | -2.3 | -0.6
CCn1c(C)cc2c(c1=O)C(c1ccncc1)C(C#N)=C(N)O2 (stereo unspecified) | -7.8 | 1.3 | / | 0.674 | 8.8 | 5.5 | 0.7
CCC1(C)Cc2c(sc3nc4n(c(=O)c23)CCCS4)CO1 (stereo unspecified) | -16.6 | 30.4 | / | 0.667 | i | 1.6 | 1.5
COc1cnc(-c2ccccn2)nc1Sc1ccccc1 | -10.1 | 95.9* | i | 0.688 | -1.7 | 0.8 | -1.5
CC(=O)c1ccc(OCCCN2CCCCC2)cc1 | -4.9 | / | / | 0.649 | 0.5 | 1.0 | 4.0
Cc1c(Cl)cccc1NC(=S)N(Cc1cccs1)C1CCCC1 | 1.6 | 1.2 | i | 0.728 | -0.7 | 2.6 | 2.3
O=c1c2ccccc2ncn1-c1ccccc1F | 2.8 | -17.6 | i | 0.657 | 7.7 | 4.0 | 3.5
Cc1ccc2c(c1)C(=O)OC1(O)C3C4C=CC(C4)C3C(=O)N21 (stereo unspecified) | -6.5 | -6.3 | i | 0.645 | -3.8 | 1.4 | -3.1
C=CCNc1oc(Cc2cccc3ccccc23)nc1C#N | 1.0 | -1.2 | i | 0.714 | -4.1 | 4.5 | 3.0
O=C(NCCCc1ccccc1)c1cccs1 | -11.1 | -5.0 | i | 0.602 | 0.1 | -0.2 | 0.0
CCc1ccc(/C=C2/SC(=S)N(CC(=O)Nc3nc4ccccc4s3)C2=O)cc1 | 1.2 | -3.6 | / | / | -3.2 | 0.7 | 6.6
COc1ccccc1OC(C)C(=O)NNC(=S)NC1CCCC1 (stereo unspecified) | 2.0 | 22.6 | i | 0.717 | -4.1 | 2.4 | -1.6
Cc1ccc(OCC(=O)N/N=C/c2cn(C)c3ccccc23)cc1 | 1.8 | -10.4 | i | / | 3.5 | / | -4.2
O=C(N/N=C/c1ccco1)C(O)c1ccccc1 (stereo unspecified) | -1.5 | -4.0 | i | / | -2.3 | / | 1.7
Cc1cc(C)cc(NC(=O)Nc2ccccc2N2CCCCC2)c1 | 2.1 | / | i | 0.725 | 11.8* | 3.5 | 4.5
NC(=O)c1c(NC(=O)c2ccc(F)cc2Cl)sc2c1CCC2 | -5.6 | 92.8* | i | 0.689 | -2.0 | -36.8 | 0.8
COc1ccc(NC(=O)c2c(C)noc2C(C)C)cc1S(=O)(=O)N1CCCCC1 | 0.1 | -3.2 | i | 0.669 | 6.9 | -2.2 | 2.9
Cc1nn2c(COc3ccc(NC(=O)c4ccccc4Cl)cc3)nnc2c2ccccc12 | -25.8 | -18.5 | / | 0.709 | 4.1 | -0.2 | -6.4
CCOC(=O)C1CCN(C(=O)COC(=O)c2oc3ccc(OC)cc3c2C)CC1 | -11.7 | / | i | 0.67 | / | -40.4 | -1.3
CC(=O)c1ccc(N2CCN(C(=O)COc3ccccc3F)CC2)c(F)c1 | 5.0 | 5.5 | / | 0.748 | -0.3 | 5.8 | -0.2
CCOC(=O)CSc1nc2ccccc2c(=O)n1-c1ccc(C(=O)NCCOC)cc1 | 10.4 | -14.5 | / | 0.757 | 2.9 | 3.3 | -0.8
CCN=C1SC(CC(=O)Nc2ccc(C)cc2)C(=O)N1CC (stereo unspecified) | -0.5 | 2.6 | / | 0.63 | 1.8 | 3.5 | 5.9
CCOC(=O)C/C(C)=N\Nc1ccc([N+](=O)[O-])cc1[N+](=O)[O-] | 3.4 | 1.5 | i | / | 1.9 | / | 1.6
O=C(Nc1ccc(F)cc1F)Nc1csc2ccccc12 | 1.5 | 4.3 | i | 0.519 | 1.8 | 1.8 | 1.1
Cc1cccc2c1NC(=O)C21N2CCCC2C(C(=O)c2ccc3ccccc3c2)C12C(=O)Nc1ccccc12 (stereo unspecified) | / | -8.9 | / | 0.708 | -0.1 | 1.8 | /
COc1cccc(NC(=O)CN(C)C(=O)c2ccc3c(c2)S(=O)(=O)N=C2CCCCCN23)c1 | 3.7 | -2.1 | i | 0.708 | 2.7 | 3.7 | -0.9
COCCNC(=O)C(c1ccc(F)cc1)N(Cc1ccccc1)C(=O)CCC(=O)Nc1nccs1 (stereo unspecified) | -0.1 | -3.9 | i | 0.73 | -1.2 | -1.2 | -3.6
CC(C)N(C(C)C)S(=O)(=O)c1ccc(NC(=O)c2cnccn2)cc1 | -3.6 | 5.5 | i | 0.687 | 1.1 | 1.9 | 3.5
COc1ccc(CN2CCN(C(=O)c3cccc4ccccc34)CC2)c(OC)c1OC | 4.7 | -5.3 | i | 0.704 | -1.5 | 4.1 | -0.2
Cc1ccc(/C=N/Nc2nnc(Cc3ccccc3)c(=O)[nH]2)o1 | -1.5 | -2.6 | i | / | -20.2 | / | -1.9
CCN(CC)C(=O)c1[nH]cnc1C(=O)N[C@@H](C)C(=O)OCc1ccccc1 | 1.3 | -8.1 | i | / | -1.6 | 5.4 | -1.2
CCCCCCNC(=O)CC(NS(=O)(=O)c1ccc(OC)cc1)C(C)C (stereo unspecified) | -5.2 | 1.4 | i | 0.689 | 1.7 | 0.3 | 1.4
COc1ccc(-c2ccc(OC)c([C@H]3[C@H]4C=CC[C@@H](C)[C@@H]4C(=O)N3Cc3ccccc3)c2)cc1C | -0.6 | / | i | / | 3.2 | 3.6 | -2.3
CC(CCc1ccccc1)NC(=O)c1ccc(F)cc1 (stereo unspecified) | -0.8 | 0.9 | i | 0.619 | 1.1 | 0.8 | -1.0
CN1CCc2c(sc3nc(SCC(=O)N4CCCCC4)n(-c4ccccc4)c(=O)c23)C1 | 60.8* | 35.3 | i | 0.713 | -4.8 | -158.6 | 4.5
COCc1nnc(NC(=O)C2CC(=O)N(C3CCCCC3)C2)s1 (stereo unspecified) | -7.1 | 34.0 | i | 0.7 | 3.1 | 4.1 | 7.8
Cc1ccc(NC(=O)CN2C(=O)S/C(=C/c3ccc(O)c([N+](=O)[O-])c3)C2=O)cc1C | 2.3 | / | i | 0.688 | / | 28.2* | -1.4
O=C(N/N=C/c1ccc(N2CCOCC2)o1)c1cccc([N+](=O)[O-])c1 | 6.7 | -42.3 | / | / | -0.7 | / | 0.1
O=C(Nc1nnc(Cc2ccccc2)s1)c1cccnc1 | 1.2 | / | i | 0.725 | / | 1.8 | 5.5
COc1ccc(/C=C/C(=O)OCC(=O)Nc2ccc(C)cc2)cc1S(=O)(=O)N1CCOCC1 | 10.5 | -3.4 | i | 0.722 | -1.7 | 2.2 | 1.8
Cn1cc(CC(=O)N2CCN(c3ccccc3F)CC2)c2ccccc21 | -3.3 | -9.2 | i | 0.688 | -2.0 | 4.2 | 0.8
O=C(Nc1cccc(Cl)c1N1CCOCC1)c1cccnc1 | -1.4 | 6.1 | i | 0.653 | 0.1 | 2.3 | 1.8
COc1cc(CNn2c(C)n[nH]c2=S)cc(Cl)c1OCc1ccc(F)cc1 | 7.6 | -6.3 | / | 0.666 | 6.2 | 4.7 | -2.7
CCOc1ccc(NC(=O)CN(C)C(=O)c2cccnc2Sc2ccc(C)cc2C)cc1OCC | -0.3 | / | i | 0.638 | / | 3.0 | -2.5
O=C(NCCOc1ccccc1)C1CCC(=O)N(Cc2ccc(Cl)cc2)C1 (stereo unspecified) | -10.9 | 0.0 | i | 0.671 | 0.3 | 0.5 | 2.6
CC12COC3(C(=O)Nc4ccc(Cl)cn4)CC1CCC32C (stereo unspecified) | -4.5 | / | / | 0.704 | -2.8 | 2.6 | 1.5

More structures
SMILES | B2AR ag | ALR H2O2 inh | FGF22 binding | E coli growth | LANA-H2B inh | UCH37 inh | HNF4A DNA FP
CC(C)CCSc1cc(NCCO)c([N+](=O)[O-])c2nonc12 | 2.5 | 6.2 | i | 0.713 | -2.6 | 10.8 | -0.8
COc1ccc(-n2nnnc2/C=C/Nc2cc(C(F)(F)F)ccc2OC)cc1 | -11.4 | 12.8 | i | 0.662 | 4.3 | -1.6 | -0.3
Cn1cc(/C=C/C(=O)N2CCCC(C(=O)c3cccc(C(F)(F)F)c3)C2)cn1 (stereo unspecified) | -2.0 | / | i | 0.655 | -0.8 | 1.2 | -2.9
CCCN(CC(=O)Nc1ccc(F)c(F)c1F)C(=O)c1ccc2c(=O)n3c(nc2c1)CCC3 | 9.8 | 0.5 | / | 0.613 | -1.1 | -0.7 | -0.3
COc1ccc(Cl)cc1NS(=O)(=O)c1cccc(C(=O)NCC2(N(C)C)CCCCC2)c1 | -2.8 | 1.5 | i | 0.637 | -2.1 | 3.0 | -3.5
O=C(/C=C/c1ccco1)NC1CCCC1 | -2.8 | 29.4 | i | 0.697 | 2.0 | 3.7 | 1.7
COc1ccc(CNC(=O)C2CC(c3ccc(OC)cc3)=NO2)cc1 (stereo unspecified) | 11.7 | -2.3 | / | 0.751 | 3.2 | 5.1 | -0.6
c1ccc(COc2ccc(CNCc3cccs3)cc2)cc1 | 1.8 | -37.7 | i | 0.598 | 0.7 | 4.1 | -0.2

A second format for some results above:
O=C(Nc1nnc(Cc2ccccc2)s1)c1cccnc1
  B2AR ag = 1.2 | ALR H2O2 inh = / | FGF22 binding = i | E coli growth = 0.725 | LANA-H2B inh = / | UCH37 inh = 1.8 | HNF4A DNA FP = 5.5
COc1ccc(/C=C/C(=O)OCC(=O)Nc2ccc(C)cc2)cc1S(=O)(=O)N1CCOCC1
  B2AR ag = 10.5 | ALR H2O2 inh = -3.4 | FGF22 binding = i | E coli growth = 0.722 | LANA-H2B inh = -1.7 | UCH37 inh = 2.2 | HNF4A DNA FP = 1.8
